Assay outcomes as filed in PubChem.
Vaccinia inh – blocks a specific stage of Vaccinia orthopoxvirus infection, primary screen, cell-based, single point. 0.01% of 89,000 active. AID 1053133, 2014. Vaccinia-infected cells, mCherry/Venus stage reporter fluorescence; hits give low values; some inactives read as strong as hits. activity change (mCherry), % (no concentration beside the values);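 active means mCherry past -33% and 40 or more points under the early reporter, replicates agreeing; inconclusive means past -33% without that gap or agreement; tested in A549 cells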;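 further: scaled between vehicle wells and reference inhibitor wells; 23 nL library stock went into each well; one replicate is shown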
Vaccinia inh Venus – further read-out of Vaccinia inh, marked with its call; activity change (Venus), %; measured here: Venus reporter, other viral stage;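 negative = less Venus signal; first of two replicates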
* hit, by the source's call; u = inconclusive; x = not tested or not shown.

SMILES | Vaccinia inh | Vaccinia inh Venus
COc1ccccc1NC(=O)N1CCCCN2[C@H](CO)[C@H](c3ccc(-c4ccc(C)cc4)cc3)[C@@H]2C1 | u | x
CN(C)C(=O)c1cccc(-c2ccccc2[C@H]2[C@@H](CO)N(C(=O)C3CC3)[C@H]2C#N)c1 | -13 | -15
CCCNC(=O)N1CC2(C1)CN(C(=O)Nc1ccc(F)cc1)[C@H](CO)c1[nH]c3cc(OC)ccc3c12 | 13 | 1
COc1ccc2c3c(n(C)c2c1)[C@@H](CO)N(C(=O)CC1CC1)CC31CCN(Cc2ccncc2)CC1 | 8 | 11
C[C@H](CO)N1C[C@H](C)[C@H](CN(C)Cc2ccc(Cl)c(Cl)c2)OCCCC[C@H](C)Oc2ccc(NC(=O)NC3CCCCC3)cc2C1=O | -16 | -12
COc1ccc(S(=O)(=O)Nc2ccc3c(c2)CC(=O)N([C@H](C)CO)C[C@@H](C)[C@@H](CN(C)S(=O)(=O)c2ccc(OC)cc2)O3)cc1 | -7 | -10
COc1ccc2c3c([nH]c2c1)[C@@H](CO)N(Cc1ccncc1)CC31CCN(CC2CCOCC2)CC1 | 17 | 15
CCNC(=O)C[C@H]1CC[C@@H](NS(=O)(=O)c2ccc(F)cc2)[C@H](CO)O1 | 4 | 1
O=C(c1ccccc1F)N1CC2(C1)[C@H](c1ccccc1)[C@@H](CO)N2CC1CCOCC1 | 16 | 13
O=C(Nc1cc(F)ccc1F)N1CC(=O)N2[C@H](CO)[C@@H](c3ccc(C#CC4CCCC4)cc3)[C@H]2C1 | u | x
Cc1ccc(S(=O)(=O)N[C@H]2C=C[C@H](CC(=O)NCc3ccccc3F)O[C@H]2CO)cc1 | -10 | -10
COCC(=O)N1CCC2(CC1)CN(Cc1cccc(OC)c1)[C@@H](CO)c1[nH]c3cc(OC)ccc3c12 | 11 | 5
OC[C@@H]1[C@@H](c2ccc(C#Cc3ccccc3)cc2)[C@H]2CN(CC3CCOCC3)CCCCN12 | u | x
C[C@@H]1CCCCO[C@H](CN(C)Cc2ccc(C(=O)O)cc2)[C@@H](C)CN([C@H](C)CO)C(=O)c2cc(NC(=O)Nc3cccc4ccccc34)ccc2O1 | 18 | 9
C[C@@H]1CN([C@H](C)CO)C(=O)c2cccc(NC(=O)c3ccc(-c4nccs4)cc3)c2O[C@@H]1CN(C)Cc1ccc(-c2ccccc2)cc1 | -19 | -9
C[C@@H]1CCCCO[C@@H](CN(C)C(=O)CCC(F)(F)F)[C@H](C)CN([C@@H](C)CO)C(=O)c2cc(NC(=O)CCC(F)(F)F)ccc2O1 | -3 | -7
COc1cccc(C#Cc2cnc3c(c2)C(=O)N([C@H](C)CO)C[C@@H](C)[C@@H](CN(C)C(=O)C2CCCCC2)O3)c1 | u | x
CNC[C@H]1Oc2c(NC(=O)C3CC3)cccc2C(=O)N([C@H](C)CO)C[C@H]1C | 11 | 8
C[C@H](CO)N1C[C@H](C)[C@@H](CN(C)S(=O)(=O)c2cccs2)Oc2c(NC(=O)NC3CCCCC3)cccc2C1=O | -11 | -12
C/C=C/c1ccc([C@@H]2[C@H]3CN(C(=O)Nc4ccc(OC)cc4)CCCCN3[C@H]2CO)cc1 | u | x
CN1CCN(C(=O)C[C@@H]2CC[C@H]3[C@@H](COC[C@H](O)CN3CC3CCCCC3)O2)CC1 | -6 | -2
O=C(C[C@@H]1C=C[C@H](NC(=O)C2CCC2)[C@@H](CO)O1)NC1CCCCC1 | 18 | 7
CO[C@@H]1CN(C)C(=O)c2ccc(NC(=O)Nc3ccccc3Cl)cc2OC[C@H](C)NC[C@H]1C | -30 | -14
COc1ccc(CNC(=O)N(C)C[C@H]2OCc3ccccc3-c3c(n(C)c4ccccc34)C(=O)N([C@H](C)CO)C[C@@H]2C)cc1 | u | x
CO[C@H]1CN(C)C(=O)c2cc(NC(=O)C3CCOCC3)ccc2OC[C@H](C)N(Cc2nccs2)C[C@H]1C | 3 | 3

Retrieved by compound from above (6):
SMILES | Vaccinia inh | Vaccinia inh Venus
COc1ccc2c3c([nH]c2c1)[C@@H](CO)N(Cc1ccncc1)CC31CCN(CC2CCOCC2)CC1 | 17 | 15
CO[C@@H]1CN(C)C(=O)c2ccc(NC(=O)Nc3ccccc3Cl)cc2OC[C@H](C)NC[C@H]1C | -30 | -14
COc1cccc(C#Cc2cnc3c(c2)C(=O)N([C@H](C)CO)C[C@@H](C)[C@@H](CN(C)C(=O)C2CCCCC2)O3)c1 | u | x
COc1ccc(S(=O)(=O)Nc2ccc3c(c2)CC(=O)N([C@H](C)CO)C[C@@H](C)[C@@H](CN(C)S(=O)(=O)c2ccc(OC)cc2)O3)cc1 | -7 | -10
CN(C)C(=O)c1cccc(-c2ccccc2[C@H]2[C@@H](CO)N(C(=O)C3CC3)[C@H]2C#N)c1 | -13 | -15
C/C=C/c1ccc([C@@H]2[C@H]3CN(C(=O)Nc4ccc(OC)cc4)CCCCN3[C@H]2CO)cc1 | u | x

Whole records, quoted from the list. Values in the order: Vaccinia inh | Vaccinia inh Venus
`O=C(Nc1cc(F)ccc1F)N1CC(=O)N2[C@H](CO)[C@@H](c3ccc(C#CC4CCCC4)cc3)[C@H]2C1` reads u | x
`CN1CCN(C(=O)C[C@@H]2CC[C@H]3[C@@H](COC[C@H](O)CN3CC3CCCCC3)O2)CC1` reads -6 | -2
`C[C@@H]1CCCCO[C@H](CN(C)Cc2ccc(C(=O)O)cc2)[C@@H](C)CN([C@H](C)CO)C(=O)c2cc(NC(=O)Nc3cccc4ccccc34)ccc2O1` reads 18 | 9
`O=C(C[C@@H]1C=C[C@H](NC(=O)C2CCC2)[C@@H](CO)O1)NC1CCCCC1` reads 18 | 7
`CN(C)C(=O)c1cccc(-c2ccccc2[C@H]2[C@@H](CO)N(C(=O)C3CC3)[C@H]2C#N)c1` reads -13 | -15

Other records:
SMILES | Vaccinia inh | Vaccinia inh Venus
C[C@@H]1CN([C@H](C)CO)C(=O)c2cc(NS(=O)(=O)c3cn(C)cn3)ccc2O[C@@H]1CN(C)Cc1ccc(C(=O)O)cc1 | 16 | 11
COc1cccc(CNC(=O)C[C@H]2C=C[C@H](NC(=O)C3CCOCC3)[C@H](CO)O2)c1 | 10 | 5
CO[C@@H]1CN(C)C(=O)c2cc(NC(=O)c3ccccc3F)ccc2OC[C@H](C)N(CC2CC2)C[C@H]1C | -11 | -6
CCCC#Cc1ccc2c(c1)O[C@H](CN(C)C(=O)C1CC1)[C@@H](C)CN([C@@H](C)CO)S2(=O)=O | -29 | -20
C[C@@H]1CCCCO[C@H](CN(C)S(C)(=O)=O)[C@H](C)CN([C@@H](C)CO)C(=O)c2cc(NS(=O)(=O)c3cccs3)ccc2O1 | 20 | 9
CCC(=O)Nc1ccc2c(c1)C(=O)N(C)[C@H]1CC[C@H](CC(=O)Nc3cccc(OC)c3)O[C@H]1CO2 | 7 | 4
CCC(=O)N1[C@@H](CO)[C@@H](c2ccccc2)C12CN(C(=O)c1ccc(F)cc1)C2 | 1 | 8
C[C@@H]1CN([C@@H](C)CO)C(=O)c2cccc(NS(=O)(=O)c3cn(C)cn3)c2O[C@H]1CN(C)C(=O)Nc1ccccc1 | 18 | 7
C[C@@H]1CCCCO[C@@H](CN(C)CC2CCCCC2)[C@@H](C)CN([C@H](C)CO)C(=O)c2cc(NC(=O)Nc3ccc4c(c3)OCO4)ccc2O1 | -25 | -23
C[C@H](O)C#Cc1cnc2c(c1)C(=O)N([C@@H](C)CO)C[C@@H](C)[C@@H](CN(C)C(=O)CN(C)C)O2 | 19 | 17
CCNC(=O)C[C@H]1CC[C@@H]2[C@@H](COc3ccc(NS(C)(=O)=O)cc3C(=O)N2C)O1 | 8 | 6
N#C[C@@H]1[C@@H](c2ccccc2-c2cccc(F)c2)[C@@H](CO)N1C(=O)C1CCC1 | -30 | -15
COc1ccccc1S(=O)(=O)N[C@@H]1CC[C@H](CC(=O)N2CCN(C)CC2)O[C@@H]1CO | -18 | -10
C[C@@H]1CCCCO[C@@H](CN(C)Cc2ccc(C(F)(F)F)cc2)[C@H](C)CN([C@H](C)CO)C(=O)c2cc(NC(=O)Nc3ccc(F)cc3)ccc2O1 | -18 | -11
CC(C)CC#Cc1ccc2c(c1)O[C@H](CN(C)C(=O)Cc1ccncc1)[C@H](C)CN([C@@H](C)CO)S2(=O)=O | u | x
CCC(=O)N1CCCCN2[C@H](CO)[C@H](c3ccc(C#Cc4ccccc4F)cc3)[C@@H]2C1 | -20 | -16
O=C(Nc1ccc2c(c1)OCO2)N[C@H]1CC[C@@H](CC(=O)N2CCN(c3ccccc3)CC2)O[C@@H]1CO | -7 | -6
C[C@H]1CN([C@@H](C)CO)C(=O)Cc2cc(NS(=O)(=O)c3ccccc3)ccc2O[C@H]1CN(C)Cc1ccccc1 | -11 | -1
CC(C)NC(=O)N1[C@H](C#N)[C@H](c2ccc(-c3ccc(F)cc3)cc2)[C@H]1CO | u | x
CCCNC(=O)[C@@H]1[C@@H](CO)[C@@H]2Cn3c(cccc3=O)[C@H]1N2C(=O)C1CC1 | 16 | 10
C[C@@H]1CCCCO[C@@H](CN(C)C(=O)Nc2ccc3c(c2)OCO3)[C@@H](C)CN([C@H](C)CO)C(=O)c2cc(NC(=O)CCC(F)(F)F)ccc2O1 | 11 | 7
C[C@@H]1CN([C@@H](C)CO)S(=O)(=O)c2ccc(C#Cc3ccncc3)cc2O[C@@H]1CN(C)C(=O)C1CC1 | 6 | -4
COc1cccc(NC(=O)N[C@@H]2CC[C@@H](CC(=O)NCc3ccccn3)O[C@@H]2CO)c1 | 0 | -11
CO[C@H]1CN(C)C(=O)c2ccc(NC(=O)c3ccccc3F)cc2OC[C@H](C)NC[C@@H]1C | 1 | -2
Cc1noc(C)c1S(=O)(=O)Nc1ccc2c(c1)C(=O)N([C@H](C)CO)C[C@H](C)[C@H](CN(C)Cc1ccc(C(=O)O)cc1)OCCCC[C@H](C)O2 | 0 | -5
SMILES | Vaccinia inh | Vaccinia inh Venus
C[C@@H]1CN([C@@H](C)CO)C(=O)c2cc(NC(=O)CCC(F)(F)F)ccc2O[C@@H]1CN(C)Cc1ccc(Cl)c(Cl)c1 | u | x
C[C@@H]1CN([C@H](C)CO)S(=O)(=O)c2ccc(C3=CCCC3)cc2O[C@@H]1CN(C)C(=O)C1CCOCC1 | 18 | 14
CCCNC(=O)[C@@H]1[C@@H](CO)[C@@H]2Cn3c(ccc(-c4ccccc4)c3=O)[C@H]1N2C(=O)CC1CC1 | 10 | 5
CC(C)C#Cc1ccc2c(c1)O[C@H](CN(C)S(=O)(=O)c1cn(C)cn1)[C@@H](C)CN([C@H](C)CO)S2(=O)=O | 0 | 3
CN1CCCCN2[C@H](CO)[C@H](c3ccc(C#CC4(O)CCCC4)cc3)[C@@H]2C1 | 16 | 11
CCCNC(=O)C[C@@H]1C[C@H]2c3cc(NS(=O)(=O)c4ccc(F)cc4)ccc3O[C@H]2[C@H](CO)O1 | 11 | 9
C[C@@H]1CN([C@@H](C)CO)C(=O)c2cc(NS(=O)(=O)c3ccc(Cl)cc3)ccc2O[C@H]1CN(C)Cc1ccccc1 | -11 | -7
C[C@H]1CN([C@@H](C)CO)C(=O)c2cc(-c3cccnc3)cnc2O[C@@H]1CN(C)Cc1ccc(Oc2ccccc2)cc1 | u | x
C[C@@H]1CN([C@H](C)CO)C(=O)c2cccc(NC(=O)C3CC3)c2O[C@@H]1CN(C)C(=O)Nc1cccc2ccccc12 | 36 | 19
C/C=C/c1ccc2c(c1)O[C@@H](CN(C)C(=O)CN(C)C)[C@H](C)CN([C@@H](C)CO)S2(=O)=O | 14 | 5
Cc1noc(C)c1NC(=O)N(C)C[C@H]1Oc2ccc(NS(=O)(=O)c3ccc(Cl)cc3)cc2CC(=O)N([C@H](C)CO)C[C@@H]1C | 20 | 8
OC[C@@H]1[C@@H](c2ccc(C#Cc3ccccc3)cc2)[C@@H]2CN(CC3CCOCC3)CCCCN12 | -31 | -34
CCC(=O)N[C@@H]1C=C[C@@H](CC(=O)NCC2CC2)O[C@@H]1CO | 7 | -2
CC(C)(O)C#Cc1ccc([C@@H]2[C@@H](CO)N3CCCCN(C(=O)c4ccncc4)C[C@H]23)cc1 | 31 | 18
O=C(C1CCC1)N1CCCCN2[C@H](CO)[C@H](c3ccc(C#CC4CCCC4)cc3)[C@H]2C1 | u | x
CN(C)c1ccc2c(c1)[C@H]1C[C@H](CC(=O)NCc3ccc(Oc4ccccc4)cc3)O[C@H](CO)[C@H]1O2 | u | x
O=C(NCc1nc2ccccc2[nH]1)C1=C[C@@H](c2ccccc2)C[C@@H](OCc2ccc(CO)cc2)O1 | 1 | 2
COCCNC(=O)C[C@H]1C[C@H]2c3cc(NS(C)(=O)=O)ccc3O[C@H]2[C@H](CO)O1 | 15 | 6
C[C@H]1CN([C@@H](C)CO)C(=O)c2ccccc2-c2ccccc2CO[C@H]1CN(C)C(=O)Nc1cccc(F)c1 | 11 | 19
N#C[C@H]1[C@H](c2ccc(C#CC3CCCC3)cc2)[C@H](CO)N1C(=O)Nc1ccc(F)cc1 | u | x
O=C(N[C@@H]1CC[C@H](CCNC(=O)C2CCC2)O[C@@H]1CO)c1ccncc1 | 2 | 5
C[C@@H]1CN([C@H](C)CO)C(=O)c2cc(C#CC3CCCCC3)cnc2O[C@@H]1CN(C)C(=O)Nc1ccccc1 | u | x
CCC(=O)N1CC2(C1)CN(C(=O)Cc1ccccc1)[C@@H](CO)c1c2c2ccc(OC)cc2n1C | 21 | 10
C[C@H]1CN([C@@H](C)CO)C(=O)c2cc(NS(C)(=O)=O)ccc2O[C@H]1CN(C)C(=O)Nc1cccc2ccccc12 | 37 | 29
COCC(=O)Nc1ccc2c(c1)OC[C@@H](C)N(C(=O)CC1CC1)C[C@H](C)[C@H](OC)CN(C)C2=O | 13 | -3

An excerpt (hit frequency here may not be typical).
